# KCNQ2 block: KCNQ2 channel blockers in CHO-K1 cells – cell-based, FluxOR thallium flux, B-score, primary screen (AID 2156). 20 min; hits give low values; only compounds with negative scores are shown here; some inactives read as strong as hits. B-score at 10 µM. 310,000 tested, 1.1% active;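 active = fluorescence ratio B-score at most minus 3 library SDs, with starting brightness B-score within 2 library SDs, cut at about -5.5 in these data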
# Target sequence (O88943 whole entry, looked up): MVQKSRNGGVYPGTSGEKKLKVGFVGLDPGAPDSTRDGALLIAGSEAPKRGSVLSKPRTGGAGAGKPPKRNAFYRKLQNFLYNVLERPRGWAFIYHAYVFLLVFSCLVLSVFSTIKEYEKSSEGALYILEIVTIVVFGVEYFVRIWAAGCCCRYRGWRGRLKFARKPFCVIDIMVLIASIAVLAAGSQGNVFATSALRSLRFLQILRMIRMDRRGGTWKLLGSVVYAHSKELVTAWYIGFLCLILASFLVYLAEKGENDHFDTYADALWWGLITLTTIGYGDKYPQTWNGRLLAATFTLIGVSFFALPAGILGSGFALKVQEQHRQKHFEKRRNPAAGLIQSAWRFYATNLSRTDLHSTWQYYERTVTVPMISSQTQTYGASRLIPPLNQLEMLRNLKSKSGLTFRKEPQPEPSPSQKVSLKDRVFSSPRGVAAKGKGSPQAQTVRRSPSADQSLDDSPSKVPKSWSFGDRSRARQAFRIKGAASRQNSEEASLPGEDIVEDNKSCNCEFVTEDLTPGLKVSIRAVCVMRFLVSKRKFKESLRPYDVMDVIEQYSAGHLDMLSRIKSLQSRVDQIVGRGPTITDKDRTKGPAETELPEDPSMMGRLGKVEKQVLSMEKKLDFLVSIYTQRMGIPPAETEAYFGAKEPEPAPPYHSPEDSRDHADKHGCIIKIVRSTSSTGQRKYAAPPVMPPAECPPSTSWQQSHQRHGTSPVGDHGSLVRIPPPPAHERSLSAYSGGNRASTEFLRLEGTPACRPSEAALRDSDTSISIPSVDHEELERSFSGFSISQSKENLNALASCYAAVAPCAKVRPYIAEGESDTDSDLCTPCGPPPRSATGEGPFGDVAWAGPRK
# KCNQ2 block baseline: second read-out of KCNQ2 block, no call of its own (marks repeat the call); B-score; measured here: initial fluorescence intensity artifact check;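 brightness before thallium and not channel activity; 0 = typical well and far values either way flag optical interference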
# * marks the source's active call; other numbers are inactive results; i = inactive. These rows are one share of the data, so the mix of outcomes need not match the whole.
KCNQ2 block,KCNQ2 block baseline,SMILES
i,-2.1,CCOC(=O)C1(C)NC(c2ccc(OC)cc2OC)C2C(=O)N(c3cccc(OC)c3)C(=O)C21 (configuration not stated)
i,-2.41,C=CCOC(=O)C1=C(C)Nc2nnnn2C1c1cccc(OC)c1OC (configuration not stated)
i,-0.16,CN(C(=O)c1cccc(NC(=O)Cc2ccccc2)c1)c1ccccc1
i,-0.82,C=C(C)CN(CC)C(=O)CN1C(=O)NC2(CCCc3ccccc32)C1=O (configuration not stated)
i,0.07,Cc1cc(C)c2c(=O)[nH]c(SCc3ccccc3)nc2n1
i,-0.41,Cc1ccnc(NC(=O)CCC(=O)N(CC(=O)NCc2ccccc2)Cc2cccs2)c1
i,-1.31,CC(NC(=O)Nc1ncccn1)(C(F)(F)F)C(F)(F)F
i,-0.96,[N-]=[N+]=NC[C@H](Cc1ccccc1)N1CCN(Cc2ccccc2)CCC1=O
i,0.56,O=C(NC1CC1)C1CCCN(C(=O)NC2CCCCC2)C1 (configuration not stated)
i,-1.55,CCCn1c(SCC(=O)N2CC(=O)Nc3ccccc32)nc2ccccc21

# Arranged by length of the SMILES (smallest number first): part of the list above
KCNQ2 block,KCNQ2 block baseline,SMILES
i,-1.55,CCCn1c(SCC(=O)N2CC(=O)Nc3ccccc32)nc2ccccc21
i,-0.96,[N-]=[N+]=NC[C@H](Cc1ccccc1)N1CCN(Cc2ccccc2)CCC1=O
i,-2.1,CCOC(=O)C1(C)NC(c2ccc(OC)cc2OC)C2C(=O)N(c3cccc(OC)c3)C(=O)C21 (configuration not stated)

# Continued:
KCNQ2 block,KCNQ2 block baseline,SMILES
i,0.72,CN(Cc1ccon1)C(=O)CC1C(=O)NCCN1Cc1ccccc1C(F)(F)F (configuration not stated)
i,1.42,O=C(CCCn1cc([N+](=O)[O-])cn1)NC1CCCCCC1
i,-0.12,Cc1[nH]c(=S)c(C#N)c(C)c1CCC#N
i,0.03,CCC(/C=N/Nc1ccc(S(=O)(=O)N2CCCC2)cc1[N+](=O)[O-])CC
i,0.07,Cc1cccc(NC(=S)N/N=C2\CC(C)(C)Oc3ccc(O)cc32)c1
i,-1.64,COc1ccc(-c2nc(C(=O)NCCCN3CCOCC3)cc3c2[nH]c2ccccc23)cc1OC
i,0.08,Cc1ccccc1NC(=O)CCC(=O)N/N=C/c1ccc(F)cc1
i,1.07,O=C1C(=O)N(c2ccccn2)C(c2ccc(F)cc2)/C1=C(/O)c1ccc(Br)cc1 (configuration not stated)
i,1.34,S=c1[nH]nc(COc2ccccc2)n1/N=C/c1ccccn1
i,1.39,O=C(N/N=C/c1cccc(Oc2ccccc2)c1)c1ccccc1Br
i,-0.43,CC(C)Cn1cnc2c(c1=N)C(c1ccccc1)C1=C(CC(C)(C)CC1=O)O2 (configuration not stated)
i,0.9,COc1ccc(/C=C2\SC(=O)N(CCNC(=O)C3CC(=O)N(c4ccccc4)C3)C2=O)cc1 (configuration not stated)
i,-0.74,COC(=O)c1cc(NC(=O)c2c(-c3c(Cl)cccc3Cl)noc2C)ccc1N1CCOCC1
i,1.26,O=C(CSc1nnc(C2CC2)n1Cc1ccccc1)Nc1cccnc1Cl
i,-1.79,O=C1c2ccccc2S(=O)(=O)N1CC(O)COc1ccc(Br)cc1 (configuration not stated)
i,1.58,CC1C/C(=N\NC(=O)CCc2ccc(S(=O)(=O)N3CCOCC3)cc2)CC(C)(C)C1 (configuration not stated)
i,-0.95,CC(=O)c1c(C(C)=O)c(C)n(C2CCCCC2)c1C
i,1.04,Cc1nc(SCn2nnc3ccccc3c2=O)nc(C)c1C
i,1.3,O=C(CSc1nnc2ccccn12)Nc1ccc2c(c1)OCO2
i,2,COc1ccccc1NC(=O)Cn1c(=O)n2nc(C)nc2c2ccccc21
i,-0.99,CCC(C)c1ccc(O)c(NC(=S)NC(=O)c2cccnc2)c1 (configuration not stated)
i,3.12,COC(=O)[C@@H](NC(=O)Nc1cccc(Br)c1)C(C)C
i,1.06,COc1ccc(C=O)cc1CSc1ccccn1
i,-0.26,CC(=O)Nc1ccc(NC(=O)Cn2nc([N+](=O)[O-])c(Br)c2C)cc1
i,-0.55,COc1ccc(OC)c(NC(=O)CSc2ncnc3c2cnn3-c2ccccc2Cl)c1
i,-1.3,O=C(c1ccc2c(c1)OCCO2)C1CCN(S(=O)(=O)c2cccc(F)c2)CC1
i,1.82,CC1CCCCN1C(=O)c1ccc(OC2CCN(S(=O)(=O)N(C)C)CC2)cc1 (configuration not stated)
i,1.69,CC(=O)C(=Nc1ccc(Cl)cc1Cl)NNc1cccc(Cl)c1
-5.57*,-0.04*,COc1cccc(CN(C)C(=O)c2cc(S(=O)(=O)N3CCN(c4ccccc4)CC3)ccc2Cl)c1
i,-0.13,Cc1ccccc1NC(=O)CSc1nn2c(=O)c(C)nnc2s1
i,-0.43,O=S(=O)(CCc1nc2ccccc2o1)c1ccc(Cl)c(Cl)c1
i,-1.42,Cc1ccccc1-c1noc(-c2ccc(Cl)cc2)n1
i,0.1,O=S(=O)(Nc1cccc(S(=O)(=O)N2CCOCC2)c1)c1ccc2c(c1)OCCO2
i,1.94,CCOC(=O)C1CCN(CC(=O)Nc2c(C(=O)OC)[nH]c3cccc(C)c23)CC1
i,-0.4,O=[N+]([O-])c1cc2c(cc1[N+](=O)[O-])OCCOCCOCCOCCO2
i,-2.91,N#Cc1c(NC(=O)Cn2cnc3ccccc3c2=O)oc(-c2ccccc2)c1-c1ccccc1
i,-0.23,Cc1nn(C(C)(C)C)c(N)c1-c1ccccc1
i,0.78,CCOc1ccc(CCNC(=O)CCn2ccc3cc(S(=O)(=O)N4CCCC4)ccc32)cc1
i,0.25,Cn1nc(C(F)(F)F)c(CN2CC(C)(C)C2=O)c1N1CCOCC1
-5.98*,-0.78*,O=C(CNC(c1ccccc1)c1ccccc1)NCc1ccccc1Cl
i,0.04,CCCOc1ccc(-c2nnn(CC(=O)N3CCCC(C)C3)n2)cc1 (configuration not stated)
i,-1.95,COc1ccc(NC(=O)N2CCCC(C(=O)Nc3ccccc3OC)C2)cc1 (configuration not stated)
i,-0.16,Cc1cccc(C)c1N=Cc1c(C(F)(F)F)[nH][nH]c1=O
i,0.35,CCOc1cccc2sc(Cl)nc12
i,0.01,CC1(C)Cc2c(cnn2-c2ccc(F)cc2)C(NC(=O)CCN2CCCC2=O)C1 (configuration not stated)
i,1.48,N#C/C(=C/c1ccc(O)c(O)c1)C(=O)NCc1ccc(Cl)cc1
i,0.8,CC(=O)Nc1nc(C)c(Oc2cccc(C(F)(F)F)c2)c(=O)[nH]1
i,0.37,O=C(CSc1nc(=O)n2ccccc2n1)N1N=C(c2cccs2)CC1c1ccc(F)cc1 (configuration not stated)
i,2.57,CC(=O)Oc1ccc2occ(C(=O)c3ccccc3)c2c1
i,-0.06,Cc1csc(NC(=O)c2cc(C)nc3ccccc23)n1

# Not a retest: entries from further up.
KCNQ2 block,KCNQ2 block baseline,SMILES
i,-1.95,COc1ccc(NC(=O)N2CCCC(C(=O)Nc3ccccc3OC)C2)cc1 (configuration not stated)
i,-0.16,Cc1cccc(C)c1N=Cc1c(C(F)(F)F)[nH][nH]c1=O
i,0.35,CCOc1cccc2sc(Cl)nc12
i,0.01,CC1(C)Cc2c(cnn2-c2ccc(F)cc2)C(NC(=O)CCN2CCCC2=O)C1 (configuration not stated)

# Continuation.
KCNQ2 block,KCNQ2 block baseline,SMILES
i,1.39,Cc1cccc(NC(=O)c2ccc(-n3cccn3)c([N+](=O)[O-])c2)c1
i,0.87,COc1ccc(Nc2nc3c(C)cccc3cc2C#N)cc1
i,-0.85,CCN(CC)CCNS(=O)(=O)c1ccc(Cl)cc1
i,-0.35,CC(=O)Nc1ccc(S(=O)(=O)N2CCN(C(=O)N3CCOCC3)CC2)cc1
i,-1.19,COc1ccc(NC(=O)c2sc(SCc3ccccc3)nc2N)cc1
i,1.5,Cc1cc(-c2ccccc2)nc(N/N=C/c2ccccc2)n1
i,-0.54,O=C(O)CCCCCN=C1CCc2ccccc2N1
i,-1.29,COc1ccccc1CN1CCCCCC1
i,0.02,Cc1cc(C)nc(Nc2ccc(Cl)cc2C)n1
i,0.3,COc1ccc2cc(C(=O)N3CCCC(Nc4ccc(F)cc4)C3)n(C)c2c1 (configuration not stated)

# Compound profiles, from the list above. Values in the order: KCNQ2 block	KCNQ2 block baseline
# Listed for COc1ccccc1CN1CCCCCC1 = i	-1.29
# Listed for CCN(CC)CCNS(=O)(=O)c1ccc(Cl)cc1 = i	-0.85
# Listed for Cc1cc(-c2ccccc2)nc(N/N=C/c2ccccc2)n1 = i	1.5
# Listed for Cc1cc(C)nc(Nc2ccc(Cl)cc2C)n1 = i	0.02
# Listed for Cc1cccc(NC(=O)c2ccc(-n3cccn3)c([N+](=O)[O-])c2)c1 = i	1.39

# New compounds follow.
KCNQ2 block,KCNQ2 block baseline,SMILES
i,-1.12,CSCC[C@H](N)C(=O)NC[C@H]1CC[C@H](C(=O)N[C@@H](Cc2ccccc2)C(=O)O)CC1
i,0.06,CCN(CC)c1ccc(NC(=O)CCS(=O)(=O)c2ccc(Br)cc2)c(C)c1
i,-0.04,O=C(COc1ccccc1)N=C1SC2CS(=O)(=O)CC2N1c1ccccc1F (configuration not stated)
i,-1.12,Cc1ccc(CNC(=O)c2ccc(Cn3nc(C)c(Cl)c3C)o2)cc1
i,1.17,O=C1NC(Nc2nc3ccccc3s2)(C(F)(F)F)C(=O)N1C1CCCCC1 (configuration not stated)
i,1.94,O=c1c2ccccc2nc(-c2ccc(F)cc2)n1NCc1ccccc1O
i,-2.7,O=C(COc1cc(Cl)c(Cl)cc1Cl)NC(=O)Nc1ccc2c(c1)OCCO2
i,0.28,Cc1cccn2c(N)c(-c3ccccc3)nc12
i,0.6,COc1ccc(C2=NS(=O)(=O)N(C)C(C(=O)Nc3ccc(F)cc3F)=C2)cc1
i,-0.34,CCOC(=O)C1C(=O)C=C(c2ccc(C)cc2)CC1c1cccc([N+](=O)[O-])c1 (configuration not stated)
i,1.06,O=C(C(=O)N1CC=C(c2ccccc2)CC1)c1c[nH]c2ccccc12
i,0.37,CCCCSc1nnc(NC(=O)CCc2ccccc2)s1
i,1.12,COc1ccccc1CN(C)C(=O)c1cc(C)nc2ccccc12
i,0.61,CCCCNc1cc(=O)n(C)c(=O)[nH]1
i,-1.28,CCCc1nc2ccccc2c(=O)n1-c1ccc(C(=O)OCC)cc1
i,3.79,CCCn1c(=O)[nH]c(=O)c2c1nc(-c1ccc(OC(F)(F)C(F)C(F)(F)F)cc1)n2CCOC (configuration not stated)
i,-0.21,Cc1csc(NC(=O)c2cc(-c3ccncc3)nc3ccccc23)n1
i,1.04,O=C(NCc1cccnc1)C1CCC(CNS(=O)(=O)c2ccc(Cl)cc2)CC1 (configuration not stated)
i,-0.09,Cc1ccc2nc(-c3ccc(NC(=O)CCN4C(=O)c5ccccc5C4=O)cc3)sc2c1
i,0.6,CCOC(=O)C1=C(c2ccccc2)NC(=S)NC1c1ccc(Cl)c([N+](=O)[O-])c1 (configuration not stated)
i,0.54,CC(=O)c1c(C)nc2ccccn12
i,-0.08,CCS(=O)(=O)N1Cc2ccccc2CC1C(=O)Nc1nc2ccc(F)cc2s1 (configuration not stated)
i,-0.33,NC1=NC(=O)/C(=C/c2cn(CCC(=O)O)nc2-c2ccc(F)cc2)S1
i,-0.86,O=C(NC1CCCC1)C(c1ccncc1)N(C(=O)c1csnn1)c1cccc(Cl)c1 (configuration not stated)
i,-0.9,Cc1cc(C(=O)CSc2ncccn2)c(C)n1-c1cccc(F)c1
i,1.17,COc1ccc(S(=O)(=O)N2CCCCC2)cc1NC(=O)CN(C)C1CCCCC1
i,-0.84,CC(C)Cc1csc(NC(=O)c2ccccc2Cl)c1C(=O)O
i,1.31,O=C(COc1ccc(S(=O)(=O)N2CCCCC2)cc1)N1CCCCCC1
i,2.23,Cc1ccc(-c2nnn(CC(=O)NCCc3ccc4c(c3)OCO4)n2)o1
i,-1.1,CCC(=O)NC(=S)Nc1ccc(S(=O)(=O)NC2CCCCC2)cc1
i,-0.13,COc1cccc(Nc2nnc(SCN3C(=O)c4ccccc4C3=O)s2)c1
i,-2.98,Cc1cc(S(=O)(=O)Nc2c(C)nc3nc[nH]n3c2=O)ccc1F
i,7.65,CCC(=O)N1CCN(c2ccc(Cl)cc2NC(=O)c2cccc([N+](=O)[O-])c2)CC1
i,0.5,COc1ccc(F)c(-c2nc(CN3CCC(c4ccccc4)CC3)c(C)o2)c1
i,0.05,COc1ccc(/C=N/NC(=O)c2ccc(O)cc2)cc1CN1CCCc2ccccc21
i,-1.43,O=C(Nc1nc(-c2cccs2)cs1)c1cccc(S(=O)(=O)N2CCCCCC2)c1
i,-0.81,O=C1c2ccccc2C(Nc2ccccc2)N1c1cccnc1 (configuration not stated)
i,2.52,O=C(NC12CC3CC(CC(C3)C1)C2)c1cncc(Br)c1
i,3.61,c1ccn2c(c1)nc1c2nc2ccccn21
i,1.22,CCCc1[nH]nc2c1C(c1ccccc1OC)C(C#N)=C(N)O2 (configuration not stated)
i,-2.18,COc1ccc(NS(=O)(=O)c2cc(NC(=O)c3ccc(C)s3)ccc2N2CCOCC2)cc1
i,1.94,O=C1OCC2=C1C(c1ccccc1)CC(=O)N2c1cccc(F)c1 (configuration not stated)
i,0.6,CCN(CC1CCCO1)C(=O)CCc1nnc(CCc2ccccc2OC)o1 (configuration not stated)
i,0.32,Nc1ccc(C(=O)NCCCCCCNC(=O)c2ccc(N)cc2)cc1
i,0.48,CCOc1ccc(S(=O)(=O)NCCC2=CCCCC2)c2ccccc12
i,-0.05,Cn1cc(S(=O)(=O)N2CCN(c3cccc(C(F)(F)F)c3)CC2)c(=O)n(C)c1=O
i,0.01,O=C(CSc1nn(-c2ccc(F)cc2)c(=S)s1)NC1CCS(=O)(=O)C1 (configuration not stated)
